Screening data as filed in PubChem BioAssay.
KSHV LANA nucl: inhibitors of KSHV LANA-nucleosome binding, primary screen, biochemical, fluorescence polarization, FITC-LANA1-23, chicken nucleosomes | 51,000 tested, 0.3% active | FITC-LANA1-23 / chicken nucleosome fluorescence polarization; stronger effect = lower value | z-score (test concentration not listed);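 active means both repeat wells score below -2 in polarization z-score versus plate sample wells, excluding overly bright wells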;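 further: 100 nL library stock added to about 30 µL; numbers are from one replicate; some results filed as inactive read as strong as hits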
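test system = FITC-LANA peptide and chicken nucleosomes | amount = 240 nM purified chicken nucleosomes (480 nM peptide binding sites), final | reagent = 50 nM FITC-LANA1-23 probe | medium = TEN-BT buffer, pH 7.5 | doses = single compound addition by pin transfer, 100 nL per well | timing = 10–45 min, room temperature | detection = fluorescence polarization | repeats = duplicate plates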
Ab BasE inh: BasE siderophore enzyme inhibitors, primary screen, biochemical, Acinetobacter baumannii ATCC 17978, fluorescence polarization | purified BasE, fluorescence polarization binding displacement | 84,000 tested, 0.1% active | inhibition, % (concentration not given with the values);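 active means both replicates above 25% with normal brightness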;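 further: 0% = negative plate control signal and 100% = positive plate control signal; stock transfer was 100 nL into about 30 µL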
Numbers without * were called inactive; x = no result given. These rows are one share of the data (hit frequency here may not be typical).

SMILES,KSHV LANA nucl,Ab BasE inh
COc1ccc(CC(=O)NCCS(=O)(=O)N2CCN(c3ccc(OC)cc3)CC2)cc1,2.8,-1.6
CCOC(=O)c1c(C)oc(N)c1C(=O)OCC,x,2.3
NC(=O)c1ccc(-c2cccc(C(F)(F)F)c2)o1,0.35,x
CC(C)(C)S(=O)(=O)Cc1nc(-c2cccc(F)c2)cs1,x,-1.1
Cc1ccc(NC(=O)CC2C(=O)NC3CCCCC3N2C(=O)c2ccc(F)cc2)cc1C (stereo not given),0.022,-1.8
Cc1ccc(CSc2ncccc2C(F)(F)F)cc1,x,1.3
Cc1ccc(NNC(=O)c2ccno2)cc1C,0.052,-0.5
N#Cc1ccsc1NC(=O)Cn1cnc2sccc2c1=O,x,-3.6
Cc1cc(=O)[nH]c2c1cnn2C1CCCCC1,0.19,0.3
O=C(O)CCC(=O)c1ccc2c(c1)CCC2,-0.12,x
CCN1C=C(C(=O)OC)C(c2ccc(C(C)C)cc2)C(C(=O)OC)=C1,-0.21,1.0
CN(Cc1ccccc1)Cn1nc(-c2ccccc2)oc1=S,x,1.8
CC(C)CC(=O)Nc1nonc1-c1ccccc1,1.5,-0.6
COc1ccc(-c2cnn3c(Cl)c(CCCl)c(C)nc23)cc1OC,1,x
CCOC(=O)c1c(C)oc2ccc(OC(=O)N3CCOCC3)cc12,-0.89,1.1
CCOC(=O)C1=C(CNc2ccc(OCC)cc2)NC(=O)NC1c1ccccc1 (stereo not given),-0.28,-2.4
NC(=O)COC(=O)C1CCN(S(=O)(=O)c2ccccc2C(F)(F)F)CC1,x,-1.7
Cc1ccc(C(=O)Nc2cc3[nH]c(=O)[nH]c3cc2C)cc1,2.5,-2.1
Cc1ccc(Cn2c3ccccc3n3cc(C)nc23)cc1,x,0.2
O=C(c1ccc(NS(=O)(=O)c2ccc(Cl)s2)cc1)N1CCN(C(=O)c2cccs2)CC1,x,-1.4
CC1c2cccn2CCN1C(=O)CCn1ccnc1 (stereo not given),x,-0.4
COc1cc(C2Nc3ccccc3S2)cc(OC)c1OC (stereo not given),x,2.9
CSc1nc(=O)n(Cc2ccccn2)c2c1CCC2,-0.36,2.2
Cc1occc1C(=O)Nc1ccc(C(=O)N2CCCCC2)cc1,0.29,-0.5
O=C(NCc1cccnc1)Nc1c[nH]c2ccccc2c1=O,-1.8,1.9
CN(C)Cc1ccccc1CNC(=O)c1ccc(N(C)C)cc1,x,-2.1
COCCn1c(O)c(/C=N/Nc2nc(C)cc(C)n2)c(=O)[nH]c1=S,x,-0.4
COc1cccc(C(Nc2ccccn2)c2oc(CO)cc(=O)c2O)c1 (stereo not given),x,2.9
O=S(=O)(CCCCl)NC1CCN(Cc2ccccc2)CC1,2.9,x
O=C1c2ccccc2C(=O)N1CN1CCN(Cc2ccccc2)CC1,x,-0.2
C=CCn1cc(C=C2C(=O)N(C)C(=S)N(C)C2=O)c2ccccc21,x,0.4
O=C(NC1CC1)c1ccc2c(c1)CCN2S(=O)(=O)c1ccccc1,-1.1,-1.9
N#C/C(=C/c1ccc(-c2ccc(Br)cc2)o1)C(=O)NC1CCCCC1,0.56,3.7
Cc1cc(C(=O)CN2C(=O)CNC2=O)c(C)n1-c1ccccc1,x,1.0
CCNC(=S)N1CCn2cccc2C1c1ccccc1F (stereo not given),-0.86,1.7
O=C(CSc1nc2ccccc2o1)Nc1ccc(N2CCOCC2)c(Cl)c1,-0.069,3.9
CCN1CCN(c2cc(C)c3cc(NC(=S)N4CCOCC4)ccc3n2)CC1,0.43,2.0
COc1ccc(-n2c(SCC(=O)c3ccc(Cl)cc3)nc3ccccc3c2=O)cc1,x,0.9
O=C(/C=C/c1ccccc1)N1CCc2ccccc21,-0.7,0.4
O=C(CSc1ccc(-c2ccco2)nn1)N1CCCc2ccccc21,0.18,-2.5
Cc1ccc(C#N)cc1,x,1.0
CCCNC(=O)c1c(OC)cccc1OC,-0.63,0.7
CC(C)C(NC(=O)Cc1ccccc1)C(=O)N1CCN(S(=O)(=O)c2cccc(Cl)c2)CC1 (stereo not given),x,1.0
Clc1cccc(NCc2ccco2)c1,-0.21,-0.6
COc1ccc(CNc2oc(C)nc2C#N)cc1,-1.2,0.0
CC(CC(=O)Nc1nc2ccccc2[nH]1)c1ccccc1 (stereo not given),x,0.4
CCCc1ccc(-c2ccc(/C=C/C(=O)O)cc2)nc1,0.1,1.9
Cc1cc(-c2nc(-c3ccnn3S(=O)(=O)c3cccc(C(F)(F)F)c3)cs2)no1,x,1.7
O=C(NCCN1CCOCC1)c1ccc2c(=O)n3c(nc2c1)CCCCC3,-0.52,-0.5
Cc1ccc(C)c(SCC(=O)OCC(=O)c2ccco2)c1,x,2.4
COc1ccc2c(COC(=O)c3cncc(Br)c3)cc(=O)oc2c1,x,0.7
O=C(COC(=O)c1nc(-c2ccccc2)n(-c2ccccc2)n1)NCC1CCCO1 (stereo not given),x,3.9
COC(=O)C(=NNc1cccc(Cl)c1)C(=O)OC,0.096,-3.1
O=c1oc2ccccc2c2c1ncn2CCCN1CCOCC1,-0.25,-0.9
CCNS(=O)(=O)c1cc(-c2nnc(Nc3ccc(F)cc3)c3ccccc23)ccc1C,x,1.4
NC(=O)c1cc2ccccc2o/c1=N\NC(=O)c1ccccc1O,-0.18,1.4
N/C(COc1ccc2nonc2c1)=N\OC(=O)c1ccc(Cl)cc1,0.2,-0.8
COc1ccc2oc(=O)c(C(=O)OC3CCCCC3)cc2c1,-0.23,-1.2
Cn1c(=N)n(CC(O)c2ccco2)c2ccccc21 (stereo not given),0.81,-1.8
CCc1cccc2c(C(=O)Cn3nc(C)c(C)c(C#N)c3=O)c[nH]c12,x,-3.5

Reformatted: 4 of the compounds above.
O=C(NC1CC1)c1ccc2c(c1)CCN2S(=O)(=O)c1ccccc1
  KSHV LANA nucl = -1.1
  Ab BasE inh = -1.9
N#C/C(=C/c1ccc(-c2ccc(Br)cc2)o1)C(=O)NC1CCCCC1
  KSHV LANA nucl = 0.56
  Ab BasE inh = 3.7
Cc1cc(C(=O)CN2C(=O)CNC2=O)c(C)n1-c1ccccc1
  KSHV LANA nucl = x
  Ab BasE inh = 1.0
CCNC(=S)N1CCn2cccc2C1c1ccccc1F (stereo not given)
  KSHV LANA nucl = -0.86
  Ab BasE inh = 1.7

Carrying on:
SMILES,KSHV LANA nucl,Ab BasE inh
COc1ccc(CN=Cc2ccnc(SCc3ccc(Cl)cc3Cl)n2)cc1,x,-1.3
Cc1cnc(C(=O)N(CC(C)C)c2c(N)n(CC(C)C)c(=O)[nH]c2=O)cn1,x,0.4
Cc1ccc2cccc(O)c2n1,-0.64,-0.5
C=CCNC(=O)C(C)Sc1ccc(C)cc1 (stereo not given),-1.1,2.4
CC(C)[C@H](NC(N)=O)C(=O)Nc1ccc(Oc2ccccc2)cc1,x,1.1
O=S(=O)(NCC(c1cccs1)N1CCc2ccccc21)c1ccccc1 (stereo not given),-0.61,1.0
Cn1c2ccccc2n2c(=O)cc(-c3ccccc3)c(C#N)c12,x,3.8
O=C(OCc1nnc(-c2ccccc2)o1)C1(c2ccc(Cl)cc2)CCCC1,x,-0.8
COc1ccc(OC)c(S(=O)(=O)Nc2cccc(-c3cn4c(n3)SCC4)c2)c1,-0.077,-3.0
COc1ccc(NC(=O)/C=C2\SC(=O)NC2=O)cc1,-0.59,-1.1
CCCCn1c(N)c(S(=O)(=O)c2ccccc2)c2nc3ccccc3nc21,x,0.7
O=c1ccc2cc(S(=O)(=O)Nc3ccccn3)ccc2o1,1.4,-5.5
CC(=O)Nc1ccc(/C=N/n2cc(-c3ccccc3)[nH]c2=S)cc1,x,2.5
Cc1ccc(N2N=NC3CCC(C4=CCCC4)C32N2CCOCC2)cc1Cl (stereo not given),x,-2.1
Cc1cccc(C)c1NC(=O)C(C)Sc1n[nH]c(-c2ccncc2)n1 (stereo not given),0.027,0.9
CC1=C(C(=O)OC2CCCC2)C(c2cc3c(cc2Cl)OCO3)C2=C(CCCC2=O)N1 (stereo not given),0.11,2.9
COc1ccc(/C=C2/C(=O)CNC2=O)cc1,-0.69,4.2
COc1ccc(C(=O)Nc2ccc(N3CCN(S(C)(=O)=O)CC3)cc2)cc1OC,-0.82,1.5
O=S1(=O)CC(O)C(N2CCN(Cc3ccccc3)CC2)C1 (stereo not given),x,1.2
O=S(=O)(NNC1=NCCCCC1)c1ccccc1,x,0.8
CC1CCCN(S(=O)(=O)c2cccc(-c3cn4cccnc4n3)c2)C1 (stereo not given),-0.38,2.3
CCOC(=O)C1=NN(c2ccc(C)cc2)C2C(=O)N(c3ccc(Cl)cc3)C(=O)C12 (stereo not given),-0.19,0.6
CNC(=S)N(Cc1ccc(S(N)(=O)=O)cc1)CC(F)(F)F,x,-1.9
O=C1c2ccccc2C(=O)N1CCCCSc1nnc2ccccn12,x,1.9
O=C(Nc1cccc(-c2nc3ccccc3[nH]2)c1)C1CCCO1 (stereo not given),0.89,-1.1
COc1nc2nonc2nc1Nc1ccc(C)cc1,0.91,1.1
CC1CC(=O)N(C)c2ccccc2S1 (stereo not given),0.049,0.0
CC(NC(=O)/C=C/c1ccc2c(c1)OCO2)c1ccccc1 (stereo not given),x,-1.6
CC(O)c1nc2ccccc2s1 (stereo not given),x,2.8
Cc1sc(NC(=O)C(Cc2ccccc2)Cc2ccccc2)c(C#N)c1C,x,1.0
Cc1ccc(OCC(=O)OCC(=O)Nc2ncc(Cl)cc2Cl)cc1C,x,0.0
COc1ccc(CC(=O)N2CCc3ccccc32)cc1OC,x,-0.2
CC1CC2(C)Oc3ccccc3C3OCC1CC32 (stereo not given),0.27,1.8
Cc1c(C(=O)NCCCc2ccccc2)oc2c1-c1[nH]ncc1CC2,0.95,1.4
C=C1C(C(=O)N2CCN(c3ccccc3)CC2)C1C(=O)N1CCN(c2ccccc2)CC1 (stereo not given),x,0.5
Cc1oc2ncn(C)c(=O)c2c1C(=O)O,x,-1.1
COc1ccc(C)cc1CSc1nnc(-c2cccs2)n1C1CC1,x,-0.7
CCOCC(=O)N1CCC(Cc2ccccc2)CC1,-0.41,-1.5
CN(C)S(=O)(=O)c1ccc(-c2csc(-c3cccnc3)n2)cc1,0.43,-0.7
CCCCn1c(=O)[nH]c2nc3cc(N(C)C)ccc3nc2c1=O,-1.2,0.4
O=C(Cn1c(=O)n(CC(=O)NC2CCCC2)c(=O)c2ccccc21)Nc1ccc(F)cc1,0.25,0.4
O=C(NCc1ccc(C(F)(F)F)cc1)c1ccc(Cl)cc1Cl,x,-0.2
COC(=O)C(C)NC(=O)N1CCN(c2nnc(C)c3c(C)n(-c4ccc(C)cc4)nc23)CC1 (stereo not given),0.14,-2.1
CC1CCN(C(=O)c2ccc(Br)cc2)CC1,0.86,-4.5
COc1ccc(OC)c(NC(=O)COc2ccc3c4c(c(=O)oc3c2)CCC4)c1,2.1,0.5
CCN(C(=O)C(C)Sc1ccc(S(=O)(=O)N2CCN(C)CC2)cn1)c1ccccc1 (stereo not given),x,1.1
O=C(NCCCN1CCCCCC1)c1cc(=O)[nH]c2ccc(S(=O)(=O)N3CCCCC3)cc12,-0.3,1.8
O=C1OC(c2ccccc2)OC(=O)C1=Cc1cccc(OCc2ccccc2)c1 (stereo not given),x,5.5
COCC(=O)N1CCN(Cc2ccccc2)CC1,0.23,1.7
CN1CCN(c2nc(C#N)c(C#N)nc2C(C#N)=C2Nc3ccccc3N2)CC1,-1.6,0.9
Cc1ccc(CCS(=O)(=O)c2ccc(C(C)C)cc2)c[n+]1C,x,0.8
CCOc1ccc2[nH]c(=O)c(CN(CCO)C(=O)Nc3ccc(OC)cc3)cc2c1,-0.81,0.5
COc1ccc(C(=O)c2ccc(OC)c(OC)c2)cc1,-0.15,-2.1
CSc1ccc(/C=N/NC(N)=S)cc1,-0.55,5.1
CC(C)CNC(=O)Cc1ccccc1,0.034,0.0
Cc1cc(C(=S)NC(=O)c2ccccc2)c(C)n1C,x,-0.8
Cc1nc2nc(NC(=O)C3CCCCC3)[nH]n2c(=O)c1C,0.81,2.9
CC(C)(C#N)NNC(N)=S,x,1.5
COc1ccc(CC(=O)N2CCOCC2)cc1,0.24,-0.2
CC1CC(C)(C)NC(=S)O1 (stereo not given),-0.66,-1.5

Overlap with the part before: two compounds; new compounds follow.
SMILES,KSHV LANA nucl,Ab BasE inh
COc1ccc(CC(=O)N2CCOCC2)cc1,0.24,-0.2
CC1CC(C)(C)NC(=S)O1 (stereo not given),-0.66,-1.5
Cc1ccc(-n2nnnc2-c2ccccc2)cc1,-0.39,0.3
OCCN1C[C@H](O)[C@@H](O)[C@H](O)[C@H]1CO,0.062,x
C=CCN1C(=O)c2ccccc2N2C(=O)CCC12C(=O)O (stereo not given),x,3.1
CCn1c2ccccc2c2cc(NC(=O)COc3ccccc3C#N)ccc21,x,1.7
Nc1nc(-c2ccco2)c(-c2ccco2)s1,x,2.9
